Source: PubChem BioAssay
CDC25B CDK2 inh – human CDC25B-CDK2/CyclinA binding inhibition; P30305+P24941; HTRF CDC25B-CDK2/CyclinA binding, anti-His/anti-Flag; hits give high values; z-score (test concentration not listed); hit rate 0.72% among 94,000; AID 1259370;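 also: score is relative to mean and SD of negative controls; strong numbers were not always called active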
TAR Tat displ – HIV-1 TAR-Tat binding disruption; HIV-1 TAR RNA, Tat peptide displacement FRET; hits give high values; z-score (no concentration beside the values); hit rate 0.6% among 100,000;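 also: score is relative to mean and SD of negative controls; some compounds called inactive have numbers as strong as hits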
Starred values were filed as active, the others as inactive; x = no result given.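 The calls were made as follows: active = z-score from 3 up in half or more of its runs; inactive = the rest.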

Every second line gives: CDC25B CDK2 inh | TAR Tat displ
> Cc1cc(C)c(NC(=O)C2Nc3ccccc3S(=O)(=O)N2)c(C)c1 (stereo not drawn)
  x | -1.33
> Cc1nc2ccccc2c2oc(C(=O)Nc3ccc4c(c3)OCCO4)cc12
  -1.7 | 1.93
> CCn1nccc1C1CCCN1C(=O)Nc1ccc2c(c1)OCCO2 (stereo not drawn)
  -2.09 | 1.58
> Cn1c(=O)c2cn3c(c2n(C)c1=O)C(c1ccccc1)Nc1ccccc1-3 (stereo not drawn)
  1.15 | 0.65
> O=C1CCSc2ccc(S(=O)(=O)N3CCN(C(=O)c4ccco4)CC3)cc2N1
  x | 1.27
> CC1(C)CC(=O)C2=C(C1)Nc1nc(-c3cccc(Cl)c3)nn1C2c1ccc(F)cc1 (stereo not drawn)
  -0.56 | 1.55
> COc1ccc(CN[C@H]2CS(=O)(=O)C[C@@H]2S(=O)(=O)c2cccs2)cc1
  -0.67 | -2.04
> COc1ccc(-c2nc(N)c3c4c(sc3n2)CCCC4)cc1
  -0.35 | 0.92
> Cc1ccc(C2=NS(=O)(=O)c3cc(S(=O)(=O)N4CCCCC4)ccc3N2)cc1
  -1.23 | -0.18
> N#Cc1c(SCC(N)=O)nc2c(c1-c1cccnc1)CCC2
  -1.67 | -0.76
> CC(CS(=O)(=O)c1ccc2c(c1)NC(=O)CS2)C(=O)Nc1ccc(F)cc1 (stereo not drawn)
  x | 1.24
> Cc1cc(C)c2oc(C(=O)N(Cc3sccc3C)C3CCS(=O)(=O)C3)c(C)c2c1 (stereo not drawn)
  -0.86 | 1.62
> Nc1ccc2nc(-c3ccccc3)c(-c3ccccc3)nc2c1
  -1.18 | -4.16
> Cc1ccc2c(c1)Cc1c(nc(-c3ccccc3)nc1SCC(N)=O)O2
  -0.8 | 1.49
> CC(C)c1ccc2occ(CC(=O)N(Cc3ccc(Cl)cc3)Cc3ccco3)c2c1
  -1.35 | 1.47
> O=c1oc(-c2ccccc2)cc(Cl)c1Cl
  13.8* | 1.22
> O=[N+]([O-])c1ccc(SC2=NCCS2)nc1
  -0.96 | x
> COc1cc(OC)c(NC2=NS(=O)(=O)C(c3ccc(C(C)C)cc3)=C2C)cc1Cl
  -2.67 | -4.11
> CC(C)C(NS(=O)(=O)c1ccc2c(c1)oc(=O)n2C)C(=O)NC1CCCCC1C (stereo not drawn)
  0.19 | x
> C[C@]12CC[C@@H](O)C[C@H]1CCc1ccccc12
  x | 1.96
> O=C1CCSc2ccc(S(=O)(=O)NCCN3CCN(c4ccccc4F)CC3)cc2N1
  x | 0.66
> N#CCN(CC#N)C(=O)c1cccs1
  -0.63 | x
> CN1CCCc2cc(C(CNC(=O)C(=O)NCc3ccc4c(c3)OCO4)N3CCCCC3)ccc21 (stereo not drawn)
  x | 0.77
> Cc1cc(C)c(C)c(S(=O)(=O)Nc2ccc3c(c2)CCC(=O)N3)c1C
  x | 1.46
> O=C(C1CCC(=O)N1S(=O)(=O)c1ccccc1)N1CCN(c2ccccc2)CC1 (stereo not drawn)
  x | 0.96
> N/C(=N\O)c1cncnc1N
  -2.08 | x
> CCOC(=O)C1CCN(c2nc(OC)nc(OC)n2)CC1
  -0.65 | x
> COC(=O)c1sc(NC(=O)COc2ccc(Cl)cc2)c(C#N)c1C
  -0.91 | x
> O=C(CNS(=O)(=O)c1ccc(Br)s1)NCC1COc2ccccc2O1 (stereo not drawn)
  -0.04 | x
> Cc1ccc2oc(SCC(=O)Nc3cccc(N4CCCC4=O)c3)nc2n1
  x | 0.67
> Cc1ccccc1N1CN(Cc2ccco2)CNC1=S
  -0.4 | x
> O=C(O)c1ccc(N2C(=O)C3CCCCC3C2=O)cc1 (stereo not drawn)
  -1 | 1.33
> CC(C)c1ccc(C2/C(=C(\O)c3ccc(Cl)cc3)C(=O)C(=O)N2CCCn2ccnc2)cc1 (stereo not drawn)
  -1.91 | 1.49
> Cc1cc(C)cc(NC(=O)Nc2cc(S(=O)(=O)N(C)C)ccc2C)c1
  -0.5 | x
> O=C(Nc1ccccc1Br)C1CCCN(S(=O)(=O)N2CCOCC2)C1 (stereo not drawn)
  x | -0.03
> COc1ccc(OC)c(S(=O)(=O)N2CCCCC2)c1
  -0.72 | 0.69
> CCS(=O)(=O)c1nc(S(=O)(=O)c2ccc(Cl)cc2)c(NC2CCCC2)s1
  -0.88 | -0.12
> O=C(c1ccco1)N1CCN(c2csc3ccc(Cl)cc3c2=O)CC1
  x | 0.35
> CC1CCCN(C(=O)Cn2c(=O)n(CC3CCC(C(=O)NC(C)C)CC3)c(=O)c3sccc32)C1 (stereo not drawn)
  x | 1.34
> CCOC(=O)C1CCN(C(=O)CN2C(=O)CCn3nc(C)cc32)CC1
  x | 1.4
> CCc1nc(C)cn1S(=O)(=O)c1ccc(C2CCCCC2)cc1
  1.75 | -0.77
> COC(=O)c1ccc(C(=O)Nc2ccc(C(F)(F)F)cc2)nc1
  -1.3 | x
> CN1CCc2c(sc3c2C(=O)NC(c2cccc(OCc4ccccc4)c2)N3)C1 (stereo not drawn)
  -0.81 | 0.1
> O=C(Cn1ncc2c3ccccc3n(Cc3ccc(Cl)cc3)c2c1=O)NC1CC1
  -1.2 | 1.64
> O=C(CCCN1C(=O)CSc2ncccc21)NC1CC1
  1.29 | 0.51
> C=CCn1c(CCCN2C(=O)c3cccc4cccc(c34)C2=O)nnc1SCC(=O)OCC
  -2.53 | x
> Cc1nc(N2CCOCC2)ncc1C(=O)N1CCOCC1
  x | 2.3
> COc1ccc(OC)c(-c2n(C)c3ccccc3[n+]2C)c1
  1.59 | 1.81
> O=C1CN(S(=O)(=O)c2cccs2)c2ccccc2N1
  x | 0.91
> O=C1CCCN1c1ccc(S(=O)(=O)Nc2ccc(-c3nnc(-c4ccccc4)o3)cc2)cc1
  x | 0.58
> O=C(CSCCSCC(=O)Nc1cccc(Cl)c1)Nc1cccc(Cl)c1
  1.97 | x
> CCOC(=O)COc1ccc(C2NC(C(=O)O)CS2)cc1OC (stereo not drawn)
  -1.73 | x
> Cc1nc(SCc2cc(=O)n3nc(C4CCCCC4)sc3n2)n[nH]1
  x | -0.31
> Cc1nc2ccccn2c(=O)c1NC(=O)c1ccc(Br)cc1
  x | 1.12
> C=CCOC(=O)C1=C(C)Nc2nc(SCC(C)C)[nH]c(=O)c2C1c1sccc1C (stereo not drawn)
  -1.57 | -0.68
> O=c1c2c(n3nnnc3n1Cc1ccccc1)-c1ccccc1CC21CCCC1
  -1.73 | -0.58
> Cc1scc(CCNC(=O)Nc2ccccc2Br)c1C
  x | -2.4
> COc1ccc(-c2nc3scc(CCNS(=O)(=O)c4ccc(Br)cc4)n3n2)cc1
  x | 0.81
> CCN(CC)S(=O)(=O)N(CC(=O)O)CC(=O)O
  x | 0.75
> O=C(Cn1cnc(S(=O)(=O)N2CCOCC2)c1)Nc1ccc(F)cc1F
  x | 0.2

The results go on:
Every second line gives: CDC25B CDK2 inh | TAR Tat displ
> CCc1nc(OCCOc2ccccc2)c2oc3ccccc3c2n1
  x | 1.82
> O=C(N/N=C/c1cccs1)c1ccccc1CO
  -1 | x
> CCOc1ccc(C)cc1S(=O)(=O)Nc1ccc(Cl)cn1
  -0.08 | 0.97
> COc1ccc(Cc2nnc(SCc3ccc(Cl)cc3)o2)cc1
  -1.18 | 0.92
> O=C(c1ccc(F)cc1)N1CCN(c2ccc3nnc(-c4ccc(F)cc4)n3n2)CC1
  0.37 | 1.86
> C/C=C(\C)C(=O)Nc1cc(C)ccc1-n1cccc1
  -2.89 | x
> Cc1c(C(=O)O/N=C(\N)c2ccc(OS(=O)(=O)N(C)C)cc2)oc2ccccc12
  -0.65 | x
> O=C(Cn1ncc2c([nH]c3ccccc32)c1=O)N1CCN(c2ccc(Cl)cc2)CC1
  x | 1.06
> CCOC(=O)CSc1ccc2ccccc2n1
  1.68 | 0.91
> O=C(NCCN1CCOCC1)C1CCN(c2nnc(N3CCCC3=O)s2)CC1
  -1.53 | 0.18
> COc1ccc(C(=O)c2c(C)oc3ccc(O)c(CN(C)C)c23)cc1
  0.1 | 0
> COc1ccc(N=C(SC)N2CCOCC2)cc1
  -1.07 | x
> CN(Cc1ccco1)C(=O)c1cc2c(s1)-c1ccc(Cl)cc1S(=O)(=O)C2
  -1.19 | 0.87
> CC1(C)O[C@H]2O[C@H](C(O)COC(=O)c3ccccc3)[C@H](OC(=O)c3ccccc3)[C@H]2O1 (stereo partly drawn)
  -3.07 | x
> O=C1NC(=S)NC(=O)C1=Cc1c(F)cccc1Cl
  0.45 | x
> OC(CNC1CCN(Cc2ccccc2)CC1)COc1ccc2c(c1)OCO2 (stereo not drawn)
  0.26 | x
> Cc1nc2sc3c(c2c(=O)o1)CCCC3
  -1.58 | x
> COc1ccc(C)cc1NS(=O)(=O)c1c(C)nc2sccn2c1=O
  x | 1.75
> COc1cc(NS(=O)(=O)c2ccc(N)cc2)nc(OC)n1
  x | 2.04
> CCOC(=O)CNC(=O)c1cc2cc(Br)ccc2o1
  -1.11 | x
> O=C1C2CCCN2C(c2cccc(F)c2)N1c1cccc(Cl)c1 (stereo not drawn)
  -1.28 | -1.72
> Cc1ccc(-c2nc3cc(NCc4ccc5c(c4)OCO5)ccc3o2)cc1
  -1.07 | -2.67
> CC(=O)Oc1ccc(NNc2ccccc2)cc1
  1 | x
> CCOc1cc(-c2ccc(OC(=O)c3ccccc3)c(OC)c2)cc(=O)c2c(C)oc(C)c12
  -2.05 | -0.3
> COc1ccc(-n2cnc(=O)c(C#N)c2SC)cc1
  -2.83 | 0.18
> COc1cc2c(cc1OC)C(c1c(-c3ccccc3)noc1C)=NCC2
  -0.43 | x
> Cc1ccccc1OCc1nc2c3cnn(Cc4ccccc4)c3ncn2n1
  -0.45 | 1.56
> Cc1ccc2oc(SCC(=O)Nc3ccc4c(c3)OCO4)nc2n1
  x | 1.78
> CC(C)c1nc(N2CCCC2)c(C#N)c2c1COC(C)(C)C2
  -0.6 | -1.09
> c1ccc2c(-c3nnc(CN4CCOCC4)o3)c[nH]c2c1
  -2.53 | 2.23

Profiles, quoted from the list:
Shown for COc1ccc(-n2cnc(=O)c(C#N)c2SC)cc1 = CDC25B CDK2 inh = -2.83; TAR Tat displ = 0.18
Shown for O=C(c1ccc(F)cc1)N1CCN(c2ccc3nnc(-c4ccc(F)cc4)n3n2)CC1 = CDC25B CDK2 inh = 0.37; TAR Tat displ = 1.86

Part of the list above in a different format.
COc1ccc(C(=O)c2c(C)oc3ccc(O)c(CN(C)C)c23)cc1
  CDC25B CDK2 inh: 0.1
  TAR Tat displ: 0

COc1ccc(N=C(SC)N2CCOCC2)cc1
  CDC25B CDK2 inh: -1.07
  TAR Tat displ: x

CN(Cc1ccco1)C(=O)c1cc2c(s1)-c1ccc(Cl)cc1S(=O)(=O)C2
  CDC25B CDK2 inh: -1.19
  TAR Tat displ: 0.87

CC1(C)O[C@H]2O[C@H](C(O)COC(=O)c3ccccc3)[C@H](OC(=O)c3ccccc3)[C@H]2O1 (stereo partly drawn)
  CDC25B CDK2 inh: -3.07
  TAR Tat displ: x

The list goes on.
Every second line gives: CDC25B CDK2 inh | TAR Tat displ
> CC1Cc2cc(S(=O)(=O)N3CCC(C(=O)N4CCOCC4)CC3)ccc2N1C(=O)C1CC1 (stereo not drawn)
  x | 0.84
> Cc1cccn2c(=O)c3cc(C(=O)NC4CCCC(C)C4C)sc3nc12 (stereo not drawn)
  1.89 | -1.3
> CCC(C)NS(=O)(=O)c1cc2c(cc1C)N(C(C)=O)CCO2 (stereo not drawn)
  x | 1.81
> CC(C(=O)c1ccccc1)C1(O)C(=O)N(C)c2ccccc21 (stereo not drawn)
  -0.71 | -1.06
> CC(=O)N1CC(C)Sc2ccc(S(=O)(=O)Nc3ccc(Cl)cc3)cc21 (stereo not drawn)
  x | 0.59
> c1ccc(-c2nc3cccnc3n2C2CCNCC2)cc1
  x | -0.2
> NC(=O)c1cc(S(=O)(=O)Nc2ccc(F)c(F)c2)cs1
  x | 0.9
> Cc1[nH]c(C)c(S(=O)(=O)Nc2ccc(F)cc2)c1C(=O)N1CCCC1
  x | 0
> Cc1cccc2c1NC(=O)C2(O)CC(=O)c1ccc(C(C)C)cc1 (stereo not drawn)
  -0.23 | 0.71
> Cn1nc(C(=O)N2CC=C(c3ccccc3)CC2)c2c1-c1ccsc1CC2
  x | 0.62
> CC(NC(=O)[C@H](CSCc1ccccc1)N1Cc2ccccc2C1=O)c1cccs1 (stereo partly drawn)
  0.34 | x
> CC(NC(=O)c1cnc2sc3c(n2c1=O)CCCC3)c1ccccc1 (stereo not drawn)
  x | 1.7
> Cn1c(=O)n(Cc2ccc(F)cc2)c(=O)c2c1nc1n2CCN1c1ccccc1
  x | 2
> CN(CCCNC(=O)C1CCCN(c2nn3c(=O)c4c(nc3s2)CCCC4)C1)C1CCCCC1 (stereo not drawn)
  x | 1.29
> COc1ccc(C(Nc2cc(C)ccn2)c2ccc3ccc(C)nc3c2O)cc1OC (stereo not drawn)
  -2.13 | x
> COc1ccc(-c2ccc(CNc3nnnn3C)o2)cc1Cl
  x | -5.42
> Cc1nc([N+](=O)[O-])cn1C(C)C
  -3.11 | x
> Cc1ccc(N2C(=O)CC(Sc3nc4c(cc3C#N)CCC4)C2=O)cc1 (stereo not drawn)
  0.29 | 0.6
> COc1ccc(S(=O)(=O)N2CCC(c3nnnn3-c3ccccc3)CC2)cc1OC
  -1.97 | 1.96
> COc1cc(OC)c(NC(=O)Nc2ncc(C)s2)cc1Cl
  -1.87 | 1.68
> COc1ccc(-c2nc(S(=O)(=O)c3ccccc3)c(N3CCOCC3)o2)cc1
  -0.18 | 0.32
> CS(=O)(=O)c1nc(S(=O)(=O)c2ccc(Cl)cc2)c(N2CCCCC2)s1
  -1.18 | 1.02
> CCN1CCN(c2nc(N)c([N+](=O)[O-])c(Nc3ccc(F)cc3)n2)CC1
  x | 0.87
> C=CCn1c2ccccc2n2cc(-c3ccccc3)nc12
  -0.1 | x
> CC1=CC(C)(C)N(C(C)C)C(=O)N1c1ccc(C)cc1
  -0.59 | x
> Cc1ccc(C)c(N2CCN(c3ncnc4c3cnn4C)CC2)c1
  x | 1.09
